# Screening data: PubChem, Broad Institute
# FGF22 binding: FGF22 (human) thermal shift binding; AID 651658; calls only at 9.99 µM; actives 1.5% (n = 340,000); recombinant FGF22 thermal shift, SYPRO orange fluorescence; percent of sucrose octasulfate shift, DMSO zero;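 active = melting point raised past a set limit in the mean and every replicate; three in four hits are not shown here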
# Target sequence (Q9HCT0 whole entry, looked up): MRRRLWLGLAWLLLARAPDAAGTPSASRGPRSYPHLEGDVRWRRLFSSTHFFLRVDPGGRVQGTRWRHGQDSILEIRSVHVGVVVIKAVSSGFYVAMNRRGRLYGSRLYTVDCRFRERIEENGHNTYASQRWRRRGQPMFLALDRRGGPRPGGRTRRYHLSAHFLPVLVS
# Calls only; i = inactive. The list is partial, so the mix of outcomes need not match the whole.
FGF22 binding | Compound
i | CCCNC(=O)N1C[C@@H](C)[C@@H](OC)CN(C)C(=O)c2ccc(NC(=O)CCC)cc2OC[C@H]1C
i | CNC[C@H]1Oc2cc(C#Cc3ccccn3)ccc2S(=O)(=O)N([C@H](C)CO)C[C@H]1C
i | C=CC[C@@]1(C(=O)N2CCOCC2)N=C(c2ccc(OCCCO)cc2)O[C@@H]1c1ccccc1
i | CO[C@H]1CN(C)C(=O)c2ccc(NC(=O)C3CCC3)cc2OC[C@H](C)N(Cc2nccs2)C[C@H]1C
i | C[C@@H]1CN([C@H](C)CO)C(=O)c2cccc(NS(=O)(=O)c3ccc(F)cc3)c2O[C@@H]1CN(C)Cc1ccncc1
i | CN1C(=O)c2cc(NC(=O)c3ccccc3Cl)ccc2OC[C@H]2O[C@H](CC(=O)NCC(F)(F)F)CC[C@H]21
i | O=C(NC1Cc2ccccc2C1)[C@@H]1N[C@@H]2c3ccc(C4=CCCCC4)c(=O)n3C[C@@H]2[C@H]1CO
i | Cc1noc(C)c1S(=O)(=O)Nc1ccc2c(c1)CC(=O)N([C@@H](C)CO)C[C@H](C)[C@H](CN(C)Cc1ccc(C(=O)O)cc1)O2
i | CC(=O)N(C)C[C@@H]1Oc2cc(-c3ccncc3)ccc2S(=O)(=O)N([C@H](C)CO)C[C@@H]1C
i | C[C@H]1CN([C@@H](C)CO)C(=O)c2cc(NC(=O)C3CCCCC3)ccc2O[C@@H]1CN(C)C(=O)Nc1ccc(C(F)(F)F)cc1
i | CO[C@H]1CN(C)C(=O)c2ccc(NC(=O)C3CC3)cc2OC[C@@H](C)NC[C@@H]1C
i | C[C@H](NC(=O)[C@@H]1[C@@H](CO)[C@@H]2Cn3c(cccc3=O)[C@H]1N2C(=O)C1CCCC1)c1ccccc1

# Overlap with the part before: 5 entries, then new ones.
FGF22 binding | Compound
i | Cc1noc(C)c1S(=O)(=O)Nc1ccc2c(c1)CC(=O)N([C@@H](C)CO)C[C@H](C)[C@H](CN(C)Cc1ccc(C(=O)O)cc1)O2
i | CC(=O)N(C)C[C@@H]1Oc2cc(-c3ccncc3)ccc2S(=O)(=O)N([C@H](C)CO)C[C@@H]1C
i | C[C@H]1CN([C@@H](C)CO)C(=O)c2cc(NC(=O)C3CCCCC3)ccc2O[C@@H]1CN(C)C(=O)Nc1ccc(C(F)(F)F)cc1
i | CO[C@H]1CN(C)C(=O)c2ccc(NC(=O)C3CC3)cc2OC[C@@H](C)NC[C@@H]1C
i | C[C@H](NC(=O)[C@@H]1[C@@H](CO)[C@@H]2Cn3c(cccc3=O)[C@H]1N2C(=O)C1CCCC1)c1ccccc1
i | C[C@H](CO)N1C[C@H](C)[C@H](CN(C)CC2CCCCC2)Oc2ccc(NC(=O)Cn3cnnn3)cc2C1=O
i | CC(C)NC(=O)Nc1ccc2c(c1)CC(=O)N([C@@H](C)CO)C[C@@H](C)[C@@H](CN(C)C(=O)NC(C)C)O2
i | C[C@H](O)C#Cc1cnc2c(c1)C(=O)N([C@H](C)CO)C[C@H](C)[C@@H](CN(C)C(=O)CC1CC1)O2
i | C[C@H]1CN([C@@H](C)CO)C(=O)c2cc(C3=CCCCC3)cnc2O[C@H]1CN(C)C(=O)c1ccc2c(c1)OCO2
i | C[C@@H]1CN([C@H](C)CO)C(=O)c2cccc(NC(=O)C3CCCCC3)c2O[C@H]1CN(C)Cc1ccc(C(=O)Nc2ccccc2N)cc1
i | O=C(C[C@@H]1C[C@H]2c3cc(NS(=O)(=O)c4ccc(F)cc4)ccc3O[C@H]2[C@@H](CO)O1)N1CCCCC1
i | C[C@@H]1CN([C@H](C)CO)C(=O)c2cc(-c3cccc(F)c3)cnc2O[C@H]1CN(C)S(=O)(=O)c1cccc(F)c1
i | C[C@@H]1CN([C@H](C)CO)C(=O)Cc2cc(NS(=O)(=O)c3cn(C)cn3)ccc2O[C@@H]1CN(C)C(=O)NC1CCCCC1
i | C[C@H](CO)N1C[C@H](C)[C@H](CN(C)CC2CC2)Oc2c(cccc2N(C)C)C1=O
i | CS(=O)(=O)Nc1ccc2c(c1)[C@H]1C[C@@H](CC(=O)NCc3cccnc3)O[C@H](CO)[C@H]1O2
i | O=C(Nc1ccc(C(F)(F)F)cc1)Nc1ccc2c(c1)[C@H]1C[C@H](CC(=O)N3CCc4ccccc4C3)O[C@H](CO)[C@H]1O2
i | O=S(=O)(N[C@@H]1CC[C@@H](CCn2cc(Cc3ccccc3)nn2)O[C@@H]1CO)c1ccccc1F

# The final three records of the part before open the next one.
FGF22 binding | Compound
i | CS(=O)(=O)Nc1ccc2c(c1)[C@H]1C[C@@H](CC(=O)NCc3cccnc3)O[C@H](CO)[C@H]1O2
i | O=C(Nc1ccc(C(F)(F)F)cc1)Nc1ccc2c(c1)[C@H]1C[C@H](CC(=O)N3CCc4ccccc4C3)O[C@H](CO)[C@H]1O2
i | O=S(=O)(N[C@@H]1CC[C@@H](CCn2cc(Cc3ccccc3)nn2)O[C@@H]1CO)c1ccccc1F
i | COc1cccc(NC(=O)N2C[C@H](O)COC[C@H]3O[C@H](CC(=O)NC4CCC4)CC[C@@H]32)c1
i | C[C@@H]1CN([C@@H](C)CO)S(=O)(=O)c2ccc(-c3cccc(C#N)c3)cc2O[C@H]1CN(C)C(=O)c1ccc(F)cc1
i | O=C(C[C@@H]1C[C@H]2c3cc(NC(=O)NC4CCCCC4)ccc3O[C@H]2[C@@H](CO)O1)NCCc1ccccc1
i | COc1cccc(NC(=O)C[C@H]2CC[C@H]3[C@H](COc4ccc(NC(C)=O)cc4C(=O)N3C)O2)c1
i | C[C@@H]1CN([C@@H](C)CO)C(=O)Cc2cc(NS(C)(=O)=O)ccc2O[C@@H]1CN(C)Cc1ccc(-c2ccccc2)cc1
i | CCCC#Cc1ccc([C@H]2[C@H]3CN(CC4CCOCC4)CCCCN3[C@H]2CO)cc1
i | Cc1ccc(S(=O)(=O)N[C@H]2CC[C@@H](CCn3cc(C4CCCCC4)nn3)O[C@H]2CO)cc1
i | C[C@@H]1CN([C@H](C)CO)C(=O)c2cccc(NC(=O)Nc3ccc4c(c3)OCO4)c2O[C@H]1CN(C)Cc1ccc(-c2ccccc2)cc1
i | Cc1noc(C)c1NC(=O)Nc1ccc2c(c1)C(=O)N([C@H](C)CO)C[C@H](C)[C@H](CN(C)C(=O)Nc1cccc3ccccc13)OCCCC[C@H](C)O2
i | COc1ccc2c3c(n(C)c2c1)[C@H](CO)N(CC1CC1)CC31CN(C(=O)c2ccccc2)C1
i | CNC[C@@H]1Oc2ccc(NC(=O)CCC(F)(F)F)cc2C(=O)N([C@H](C)CO)C[C@@H]1C
i | C[C@H](CO)N1C[C@H](C)[C@@H](CN(C)Cc2ccc(Cl)c(Cl)c2)Oc2ccc(NC(=O)CCN3CCOCC3)cc2CC1=O
i | C[C@H](CO)N1C[C@H](C)[C@H](CN(C)C(=O)Nc2ccccc2)Oc2ccc(NC(=O)CCN3CCOCC3)cc2CC1=O
i | Cc1ccc(S(=O)(=O)N[C@H]2CC[C@H](CCNS(=O)(=O)Cc3ccccc3)O[C@@H]2CO)cc1
i | C[C@@H]1CN([C@@H](C)CO)C(=O)Cc2cc(NS(=O)(=O)c3cn(C)cn3)ccc2O[C@H]1CN(C)C(=O)Nc1ccc2c(c1)OCO2
i | CC(C)(O)C#Cc1ccc([C@@H]2[C@H](CO)N3CCCCN(S(C)(=O)=O)C[C@@H]23)cc1
i | CCCNC(=O)[C@@H]1[C@@H](CO)[C@@H]2Cn3c(ccc(C4=CCCC4)c3=O)[C@@H]2N1C(=O)CC1CC1
i | CCC(=O)Nc1ccc2c(c1)C(=O)N(C)C[C@@H](OC)[C@@H](C)CN(C(C)=O)[C@H](C)CO2
i | N#C[C@@H]1[C@@H](c2ccc(C#CC3CCCCC3)cc2)[C@H](CO)N1C(=O)c1cccc(F)c1
i | O=C(N[C@H]1CC[C@H](CCNS(=O)(=O)c2ccc(F)cc2)O[C@H]1CO)c1cccnc1
i | O=C(CN1CCOCC1)N[C@@H]1CC[C@H](CCNC(=O)C2CCC2)O[C@@H]1CO
i | C[C@H](CO)N1C[C@H](C)[C@@H](CN(C)C)Oc2ccc(NS(=O)(=O)c3ccc(F)cc3)cc2C1=O
i | CC(=O)N1CCCCN2[C@H](C1)[C@@H](c1ccc(-c3cccc(C(=O)N(C)C)c3)cc1)[C@@H]2CO
i | C[C@@H]1CN([C@H](C)CO)C(=O)Cc2cc(NC(=O)CCC(F)(F)F)ccc2O[C@H]1CN(C)S(=O)(=O)c1ccc(Cl)cc1
i | CCC(=O)Nc1ccc2c(c1)OC[C@@H](C)N(Cc1ccncc1)C[C@H](C)[C@H](OC)CN(C)C2=O
i | CCC(=O)Nc1ccc2c(c1)C(=O)N(C)[C@@H]1CC[C@@H](CC(=O)NCC3CC3)O[C@@H]1CO2
i | C[C@H]1CN([C@@H](C)CO)C(=O)Cc2cc(NC(=O)Nc3ccc(F)cc3)ccc2O[C@@H]1CN(C)C
i | CC(C)NC(=O)NCC[C@H]1CC[C@H](NC(=O)CN(C)C)[C@@H](CO)O1
i | O=C(CC1CC1)Nc1ccc2c(c1)[C@@H]1C[C@H](CC(=O)N3CCc4ccccc4C3)O[C@H](CO)[C@@H]1O2
i | Cc1noc(C)c1S(=O)(=O)Nc1ccc2c(c1)C(=O)N([C@H](C)CO)C[C@H](C)[C@@H](CN(C)C(=O)Nc1ccc(C(F)(F)F)cc1)OCCCC[C@@H](C)O2
i | Cc1ccc(-c2ccc([C@H]3[C@@H](CO)N4CCCCN(C(=O)c5ccncc5)C[C@H]34)cc2)cc1
i | CO[C@H]1CN(C)C(=O)c2ccc(NS(=O)(=O)c3cn(C)cn3)cc2OC[C@@H](C)N(CC2CC2)C[C@@H]1C
i | Cc1ccc(S(=O)(=O)Nc2ccc3c(c2)C(=O)N([C@H](C)CO)C[C@H](C)[C@@H](CN(C)C(=O)c2ccncc2)OCCCC[C@H](C)O3)cc1
i | C[C@@H]1ON(C)[C@H]2C[C@H]3c4[nH]c5cccc(-c6cccc(F)c6)c5c4CCN3C(=O)[C@@H]12
i | O=C1Nc2cnc(Cl)nc2Nc2ccc(Cl)cc21
i | O=C(C[C@@H]1C=C[C@H](NC(=O)c2ccc3c(c2)OCO3)[C@@H](CO)O1)NCc1ccc(Oc2ccccc2)cc1
i | CCC(=O)Nc1ccc2c(c1)C(=O)N(C)C[C@H](OC)[C@H](C)CN[C@H](C)CO2
i | CCNC(=O)C[C@H]1CC[C@@H]2[C@@H](COc3ccc(NC(=O)Nc4ccccc4Cl)cc3C(=O)N2C)O1
i | CN(C)C(=O)c1ccc(-c2ccc3c(c2)[C@H]2[C@H](CCN2C(=O)c2ccccc2F)[C@@H](CO)N3)cc1
i | CO[C@@H]1CN(C)C(=O)c2cc(NS(=O)(=O)c3cccc(Cl)c3)ccc2OC[C@H](C)NC[C@@H]1C
i | O=C(N[C@@H]1CC[C@@H](CCn2cc(-c3ccccc3)nn2)O[C@@H]1CO)c1ccccc1F
i | O=C(O)C[C@@H]1CC[C@@H]2[C@H](COC[C@H](O)CN2S(=O)(=O)c2ccc(F)cc2)O1
i | C[C@@H]1CN([C@H](C)CO)C(=O)Cc2cc(NC(=O)CCCCCC(=O)Nc3ccccc3N)ccc2O[C@H]1CN(C)CC1CCCCC1
i | CC(C)CC#Cc1ccc2c(c1)O[C@H](CN(C)C(=O)C1CCC1)[C@@H](C)CN([C@@H](C)CO)S2(=O)=O
i | C[C@H]1CCCCO[C@H](CN(C)C(=O)Nc2cccc3ccccc23)[C@@H](C)CN([C@@H](C)CO)C(=O)c2cc(NC(=O)c3ccccc3)ccc2O1
i | COC(=O)[C@@H]1[C@@H](CO)[C@@H]2Cn3c(ccc(-c4cccc(F)c4)c3=O)[C@@H]2N1CC1CC1
i | COc1ccc(S(=O)(=O)N(C)C[C@@H]2Oc3c(NS(=O)(=O)c4cn(C)cn4)cccc3C(=O)N([C@H](C)CO)C[C@H]2C)cc1
i | C[C@H](CO)N1C[C@H](C)[C@H](CN(C)S(C)(=O)=O)Oc2ccc(NS(C)(=O)=O)cc2C1=O
i | C[C@H](CO)N1C[C@H](C)[C@H](CN(C)C(=O)Nc2cccc3ccccc23)Oc2c(NC(=O)Nc3ccccc3)cccc2C1=O
i | Cc1noc(C)c1NC(=O)N[C@@H]1CC[C@@H](CC(=O)Nc2ccc(-c3ccccc3)cc2)O[C@@H]1CO
i | C[C@H](CO)N1C[C@H](C)[C@H](CN(C)S(=O)(=O)c2ccccc2)Oc2ccc(NS(=O)(=O)c3ccccc3)cc2CC1=O
i | COc1ccc(S(=O)(=O)N(C)C[C@H]2Oc3ccc(NC(=O)C4CC4)cc3C(=O)N([C@@H](C)CO)C[C@@H]2C)cc1
i | CCC(=O)Nc1ccc2c(c1)C(=O)N(C)[C@H]1CC[C@H](CC(=O)NCC3CC3)O[C@@H]1CO2
i | COc1ccc(CN(C)C[C@@H]2OCCCC[C@H](C)Oc3ccc(NC(=O)Nc4ccc(F)cc4)cc3C(=O)N([C@H](C)CO)C[C@@H]2C)cc1
i | O=C(C[C@H]1CC[C@H]2[C@@H](COC[C@@H](O)CN2Cc2cc(F)ccc2F)O1)N[C@H]1CCN(Cc2ccccc2)C1
i | O=C(C[C@H]1C[C@H]2c3cc(NC(=O)c4ccc5c(c4)OCO5)ccc3O[C@H]2[C@H](CO)O1)NC1CCCCC1
i | Cc1noc(C)c1S(=O)(=O)Nc1ccc2c(c1)CC(=O)N([C@H](C)CO)C[C@@H](C)[C@H](CN(C)C(=O)NC1CCCCC1)O2
i | CCC(=O)N1C[C@@H](O)COC[C@H]2O[C@H](CC(=O)NCc3cc(F)cc(F)c3)CC[C@@H]21
i | O=C1CN(S(=O)(=O)c2cccc(F)c2)C[C@H]2[C@H](c3ccc(C4=CCCC4)cc3)[C@@H](CO)N12
i | O=C(C[C@H]1CC[C@H](NC(=O)c2ccc(F)cc2)[C@H](CO)O1)NCCc1ccccc1
i | COc1ccc(CN(C)C[C@H]2Oc3ccc(NS(=O)(=O)c4ccc(Cl)cc4)cc3CC(=O)N([C@@H](C)CO)C[C@H]2C)cc1
i | O=C(C[C@H]1CC[C@@H]2[C@H](COC[C@@H](O)CN2CC2CCCCC2)O1)NCC1CC1
